HIV TAR-Tat = TAR RNA-Tat peptide displacers, HIV-1, primary screen, biochemical, FRET, FAM/TAMRA-labeled Tat; HIV-1 TAR RNA, Tat peptide displacement FRET; hits give high values; z-score (no concentration beside the values); 0.6% of 100,000 active; AID 1259389, 2018;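 further: score is relative to mean and SD of negative controls; some compounds called inactive have numbers as strong as hits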
CDC25B CDK2 inh = primary biochemical HTRF screen for blockers of M-phase inducer phosphatase 2 binding to CDK2/cyclin A; HTRF CDC25B-CDK2/CyclinA binding, anti-His/anti-Flag; hits give high values; z-score (concentration not given with the values); 0.72% of 94,000 active; AID 1259370, 2018;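 further: score is relative to mean and SD of negative controls; strong numbers were not always called active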
* hit, by the source's call; . = not tested or not shown.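 How the source made its calls: active means z-score from 3 up in half or more of its runs; inactive means the rest.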

Structure	HIV TAR-Tat	CDC25B CDK2 inh
CC(C)c1ccc(CC2C(=O)Nc3ccc(Br)cc32)cc1 (configuration not stated)	2	1.4
O=C(O)c1cccc(N2C(=O)C3C4C=CC(CC4)C3C2=O)c1 (configuration not stated)	1	-1.3
CC1CC(C)CN(S(=O)(=O)N2CCCC(C(=O)NC3CC3)C2)C1 (configuration not stated)	1	.
CC(C)(C)c1cc(O)c2c(c1)Cc1c([nH]c(-c3cc(Cl)ccc3O)nc1=S)O2	-2.2	-1.1
CC(C)CN(CC(C)C)C(=O)c1cc2ccccc2oc1=O	.	0.06
Cn1nc(C(=O)NCCCN2CCOCC2)c2c1-c1ccccc1S(=O)(=O)C2	1.2	-1.4
O=C1CSC(c2ccccc2)N1c1ccc2ccccc2c1 (configuration not stated)	2.6	-2
COC(=O)C1=C(C)N(c2ccc(F)cc2)CC1=O	0.52	0.41
Cc1ccc(Nc2nc(-c3ccc(O)cc3)cs2)nc1	1.9	-1.6
Cc1ccc(C2=CC(c3ccccc3Cl)n3nc(CCCO)nc3N2)cc1 (configuration not stated)	0.71	-0.87

Structure	HIV TAR-Tat	CDC25B CDK2 inh
C=CCSc1nc2c(c(=O)[nH]1)C(c1sccc1C)C(C(=O)OC)=C(C)N2 (configuration not stated)	-0.2	-0.26
CC1CCCCC1NC(=O)C1CCN(c2ncnc3c2nc2n3CCCCC2)CC1 (configuration not stated)	0.41	.
CCCn1c2ccccc2c2cnn(CC(=O)N(CC)c3ccccc3)c(=O)c21	0.79	.
CCOC(=O)c1cc(C)nc2c1c(=O)n(Cc1nc(-c3cc(C)ccc3C)oc1C)c(=O)n2C	1.2	.
Cc1cc(C)n2ncc(C(=O)Nc3ccc(F)cc3)c2n1	-0.76	0.74
COc1ccc(S(=O)(=O)N(CCS(=O)(=O)N2CCNCC2)CC(C)C)cc1	1.1	.
Cc1c(C)n(C(=O)CSc2nc3ccccc3[nH]2)c2ccccc12	0.28	-1.3
Cc1cc(C)cc(-n2cnc3cc(C(=O)NC4CCCC4)ccc32)c1	.	-3
Cn1cccc1-c1cc2n(n1)CCCN2C(=O)CCC(=O)N1CCN(c2ccccn2)CC1	0.81	.
Nc1nccc(-c2ccc(NS(=O)(=O)c3cccc(C(F)(F)F)c3)cc2)n1	.	-1.1

Structure	HIV TAR-Tat	CDC25B CDK2 inh
Cn1c(C(=O)O)c(S(=O)(=O)c2ccc(Cl)cc2)c2ccccc21	0.84	-0.3
CCCc1c(C)nc2nc[nH]n2c1=O	2.1	-0.98
CC1CC(C)CN(CCCNC(=O)Cn2cc3c(n2)CCCC3)C1 (configuration not stated)	.	-2.5
CNc1oc(-c2ccc(F)cc2)nc1C#N	0.56	-0.07
CCCOC(=O)Cn1nnc2sc3c(c2c1=O)CCC(C)C3 (configuration not stated)	3.3	-1.5
Nc1[nH]c(=O)[nH]c(=O)c1Br	.	-4.3
Cc1c(C(=O)NCCC(C)C)oc2c1-c1[nH]ncc1CC2	0.51	-0.65
CN(C)C(=O)Nc1ccc(C(C)(C)C)cc1	.	-1.4
CCOC(=O)C(CC)Sc1ccc2nnc(-c3ccc(OCC)cc3)n2n1 (configuration not stated)	.	-0.5
O=S(=O)(c1ccc(Cl)cc1)n1ccc(-c2cnc3ccccc3n2)c1	.	-0.39

Structure	HIV TAR-Tat	CDC25B CDK2 inh
COc1ccc(-c2nc(-c3ccc(Br)cc3)no2)cc1	-2.2	.
Cc1cc(NC(=O)CN2c3ccccc3NC3=C(C(=O)CC(C)(C)C3)C2c2cccs2)no1 (configuration not stated)	1.7	.
Cc1csc2ncc(C(=O)Nc3ccc(F)c(Cl)c3)c(=O)n12	.	-0.52
COc1ccc(N2C(=O)c3cccnc3C2=O)cc1OC(C)=O	0.93	-0.93
COc1ccc(NC(=O)CCS(=O)(=O)c2ccc3c(c2)NC(=O)CS3)cc1OC	2.3	.
Cc1ccc2nc(NC(=O)C3CCCN3C(=O)OC(C)(C)C)sc2c1 (configuration not stated)	.	-0.31
O=C(CCC(=O)N1CCSc2ccccc21)Nc1ccc(F)cc1	1.5	.
COc1ccc2sc(C(=O)O)c(Br)c2c1	1.8	-6.8
Cn1nc(C(=O)O)c2c1-c1ccccc1SC2	0.13	0.58
COc1cccc(N2C(=O)N(c3ccccc3Cl)C3CS(=O)(=O)CC32)c1 (configuration not stated)	-0.65	-0.5

Structure	HIV TAR-Tat	CDC25B CDK2 inh
CCc1c(C)nc2ncnn2c1Sc1nnc(N)s1	1.2	-2.7
CN(C)CCOC(=O)c1ccc2c(c1)C(=O)c1ccccc1-2	1.3	-1.6
Cc1[nH]c2ccccc2c(=O)c1CN1CCCCC1	-0.25	-0.79
O=C1C2CCCN2C(c2ccccc2)N1c1ccc(F)cc1 (configuration not stated)	-1.1	-0.86
CC1CCN(C(=O)CN2CCC(C(=O)N3CC(C)CC(C)C3)CC2)CC1 (configuration not stated)	-1	.
Cn1nc(CC(=O)Nc2cccc(O)c2)c2ccccc2c1=O	0.29	-0.1
COc1cc2c(c(OC)c1)C(c1cc(OC)c(OC)cc1Br)CC(=O)N2 (configuration not stated)	-0.82	0.64
COC(=O)c1cc(-c2ccc(S(=O)(=O)Nc3cccc(OC)c3)s2)on1	-0.5	.
Cc1ccc(S(=O)(=O)NCCc2csc3nc(-c4ccccc4F)nn23)c(C)c1	1.6	.
CCOC(=O)c1c(C)[nH]c(C)c1S(=O)(=O)NCC(=O)N1CCN(CC)CC1	0.67	.

Structure	HIV TAR-Tat	CDC25B CDK2 inh
O=C(CSCc1ccccc1)Nc1c[nH]c(=O)[nH]c1=O	.	-1
CCn1c(CCc2cccc(NS(=O)(=O)c3c(C)nn(C)c3C)c2)nc2ccccc21	1.6	.
CCC(NC(C)C)C(O)c1ccc(O)c(O)c1 (configuration not stated)	.	-0.15
O=[N+]([O-])c1ccc(NC(=S)NC(=C(C(F)(F)F)C(F)(F)F)C(F)(F)C(F)(F)F)c(Br)c1	.	-1.8
Cc1ccc(-c2nc3c4cnn(-c5ccc(C)cc5)c4ncn3n2)cc1	0.98	-0.5
Cn1c(=O)n(Cc2ccccc2)c(=O)c2c1nc(N1CCNCC1)n2Cc1ccccc1	0.03	-1.5
Cn1ncc2c(Nc3ccccc3)nc(N3CCN(C4CCCCC4)CC3)nc21	0.68	.
COC(=O)CSc1nc2sc3c(c2c(=O)n1-c1ccc(C)cc1)CCC3	.	-13
CN(CCCn1c(=S)[nH]c2c(sc3ccccc32)c1=O)Cc1ccccc1	.	-2.5
N=C(N)N	0.39	.

Structure	HIV TAR-Tat	CDC25B CDK2 inh
CCc1ccc2c(c1)NC(c1ccncc1)=NC(c1ccc(F)cc1)=N2	0.98	0.5
Cc1cc(F)ccc1S(=O)(=O)Nc1ccc2c(c1)N(S(=O)(=O)c1ccccc1)CCC2	-0.09	.
CCOC(=O)N1CCN(CN2CCCCC2=O)CC1	.	-0.86
CC(C)NC(=O)c1sc2ccccc2c1Cl	0.59	-2.3
CCn1c2ccccc2c2nnc(NCCc3ccc(Cl)cc3)nc21	2	1.8
CSc1cccc(NC(=O)CN2Cc3ccccc3C2=O)c1	-0.55	.
CCn1c2ccc(Br)cc2c2cc(Br)ccc21	.	-2.2
Cc1cccc(-c2nc3c4c(C)c(C)n(-c5cccnc5)c4ncn3n2)c1	1.7	-1.4
COc1cc(C(Nc2ccccn2)c2ccc3ccc(C)nc3c2O)cc(OC)c1O (configuration not stated)	.	-4.4
CCCCNCC(=O)Nc1sc2c(c1C(=O)O)CCCC2	-0.56	5.3

Structure	HIV TAR-Tat	CDC25B CDK2 inh
O=C1c2cccc3cccc(c23)C(=O)N1CC1CCN(CC(O)COc2ccccc2F)CC1 (configuration not stated)	.	-5.6
Cc1ccc(CNS(=O)(=O)c2ccc3c(c2)NC(=O)CC(C)S3)o1 (configuration not stated)	0.79	.
CC1Cc2cc(S(=O)(=O)N3CCOCC3)ccc2N1C(=O)C1CC1 (configuration not stated)	1.5	.
COc1ccc(-c2noc(N3CCN(c4ccc(F)cc4)CC3)n2)cc1OC	-0.51	.
Cc1ccc(-c2nc(-c3ccc(Cl)cc3)no2)cc1	.	0.11
O=C(CCCc1nc(-c2cccs2)no1)Nc1cccnc1	2	-1.3
CCOC(=O)C1CCCN(S(=O)(=O)c2ccc(F)c(Cl)c2)C1 (configuration not stated)	.	0.02
CC(=O)c1c(C)[nH]c(C(=O)NCCN2CCC(C)CC2)c1C	.	-1.9
Cc1cc(NC(=O)c2c(-c3c(F)cccc3Cl)noc2C)no1	.	-1.3
COC(=O)c1sc2cccc(F)c2c1S(=O)(=O)Nc1ccc(F)c(Cl)c1	0.18	.

Structure	HIV TAR-Tat	CDC25B CDK2 inh
CN(Cc1ccc(F)cc1)Cc1cc(=O)c2cc(Cl)ccc2[nH]1	-0.79	.
COc1cc(NC(=O)Nc2nnc(CC(=O)N3CCCC3)s2)cc(OC)c1	1.8	.
CCOc1ccc(NCc2c(CO)cnc(C)c2O)cc1	0.38	.
COC(=O)Cc1[nH]nc2c1C1(CCOC1C)C(C#N)=C(N)O2 (configuration not stated)	1	-1.1
O=C(Nc1ccc(F)cc1)c1cnn(-c2ccc(F)cc2)c1-n1cccc1	0.96	.
Cc1ccc(-n2ncc3c(NCc4cccnc4)ncnc32)cc1Cl	0.97	.
CCN1CCN(c2ncc3c(n2)CCN(Cc2sccc2C)C3)CC1	-0.34	.
C=CCNc1ncnc2c1sc1nc(N3CCOCC3)c3c(c12)CC(C)(C)OC3	.	-0.43
O=C(COc1ccc2c(=O)c(-c3ccccc3)coc2c1)OC1CCCCC1	1.3	0
O=C(NCCC1=CCCCC1)C1CCn2c(nc3ccccc32)C1 (configuration not stated)	2.1	.

Structure	HIV TAR-Tat	CDC25B CDK2 inh
CC1=C(C(=O)OC2CCCCC2)C(c2ccncc2)n2c(nc3ccccc32)N1 (configuration not stated)	.	-0.34
O=C(Oc1cccc2cccnc12)c1cccs1	1.4	-1.6
O=C(O)CCCN1C(=O)C(=O)/C(=C(\O)c2ccc(F)cc2)C1c1cccnc1 (configuration not stated)	-0.36	-2.3
CCCc1nc2ccccc2n1CC(O)COc1cc(OC)cc(OC)c1 (configuration not stated)	-0.02	-1.4
CCOC(=O)c1ccc(Oc2coc3cc(OC(=O)N4CCOCC4)ccc3c2=O)cc1	1.1	-0.07
COc1ccc(CC2=NS(=O)(=O)c3cc(S(=O)(=O)N4CCOCC4)ccc3N2)cc1OC	1.2	.
Cc1cc2nc(CSc3nnc(COc4ccccc4C)n3C)cc(=O)n2o1	0.85	.
Cc1nn(C(C)C(=O)NCc2cccnc2)c(=O)c2cc3sccc3n12 (configuration not stated)	0.16	-1.2
O=C(CCCCCn1c(=S)[nH]c2ccccc2c1=O)NCCc1cnc[nH]1	.	-0.65
O=S(=O)(O)c1ccc2[nH]c(=S)[nH]c2c1	.	-0.38

Four entries from above, set out differently.
O=C(Oc1cccc2cccnc12)c1cccs1
  HIV TAR-Tat: 1.4; CDC25B CDK2 inh: -1.6

O=C(O)CCCN1C(=O)C(=O)/C(=C(\O)c2ccc(F)cc2)C1c1cccnc1 (configuration not stated)
  HIV TAR-Tat: -0.36; CDC25B CDK2 inh: -2.3

CCCc1nc2ccccc2n1CC(O)COc1cc(OC)cc(OC)c1 (configuration not stated)
  HIV TAR-Tat: -0.02; CDC25B CDK2 inh: -1.4

CCOC(=O)c1ccc(Oc2coc3cc(OC(=O)N4CCOCC4)ccc3c2=O)cc1
  HIV TAR-Tat: 1.1; CDC25B CDK2 inh: -0.07

(next part)
Structure	HIV TAR-Tat	CDC25B CDK2 inh
CC(=O)Nc1ccc(NC(C)=O)s1	0.33	-1.4
Cc1ccc(C)c(OC(=O)CSc2nnc(-c3cccs3)o2)c1	-0.26	-2
Cn1cnc(S(=O)(=O)N2CCN(c3ccc(Cl)cc3)CC2)c1	1.9	.
O=C(OCc1cc(=O)n2nc(C3CC3)sc2n1)c1cccc(F)c1	0.1	.
O=C1CCCN1CCCn1c(SCc2c(F)cccc2F)nc2ccccc2c1=O	.	-0.76
CCOCCOC(=O)C(C)Oc1ccc2c(=O)c(Oc3cccc(C)c3)c(C(F)(F)F)oc2c1 (configuration not stated)	.	-1.2
Cc1nc(C)c(-c2ccn(C(=O)c3c(C)noc3C)n2)o1	.	-2.9
COc1ccc(-c2c(NCc3ccc4c(c3)OCO4)c(=O)c2=O)cc1	0.37	.
C=CCn1c(Sc2c(-c3ccccc3)c3ccc(Cl)cc3[nH]c2=O)nnc1-c1ccncc1	.	-3.7
O=C1CSC(c2ccc(Cl)cc2)N1c1ccccc1 (configuration not stated)	0.8	1.1

One compound at a time, as listed above. Order of screens: HIV TAR-Tat | CDC25B CDK2 inh
`O=C1CSC(c2ccc(Cl)cc2)N1c1ccccc1` (configuration not stated) is listed with 0.8 | 1.1
`C=CCn1c(Sc2c(-c3ccccc3)c3ccc(Cl)cc3[nH]c2=O)nnc1-c1ccncc1` is listed with . | -3.7
`Cn1cnc(S(=O)(=O)N2CCN(c3ccc(Cl)cc3)CC2)c1` is listed with 1.9 | .
`CC(=O)Nc1ccc(NC(C)=O)s1` is listed with 0.33 | -1.4
`O=C(OCc1cc(=O)n2nc(C3CC3)sc2n1)c1cccc(F)c1` is listed with 0.1 | .

(continued)
Structure	HIV TAR-Tat	CDC25B CDK2 inh
O=C(O)CCSc1nnc(-c2cccnc2)o1	-1	-2.1
Cc1ccc2c(c1)c1c3n2CCCNC3CCC1 (configuration not stated)	.	-0.21
CCOC(=O)c1c(NC(=O)c2nc3ncccn3n2)sc(C)c1C	0.15	-0.78
O=C1CC(c2ccc(F)c(Br)c2)c2cnn(-c3nc4ccccc4s3)c2N1 (configuration not stated)	2.9	.
O=C(O)CN(CC(=O)O)CC(=O)O	.	3.6*
CCC1c2ccc(C)n2CCN1C(=O)Nc1cccc(SC)c1 (configuration not stated)	-9.5	-0.24
